# GIV Gai3 FP = inhibitors of GIV peptide binding to Galpha-i3, primary screen, biochemical, fluorescence polarization, FITC-GIV GBA peptide, rat Galphai3. Guanine nucleotide-binding protein G(i) subunit alpha-3 (Rattus norvegicus), P08753. 90 min; active compounds read low; scaled: aluminum fluoride 0%, vehicle 100%. percent of control (FP), % (test concentration not listed). 210,000 tested, 0.42% active. AID 1224905, 2016;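 active = replicate mean at 85% of control or lower, very high polarization wells dropped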;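 note: lower values mean more displacement of the GIV peptide from Galpha-i3; wells of about 15 µL received 100 nL stock; the first replicate is given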
# Target sequence (P08753 whole entry, looked up): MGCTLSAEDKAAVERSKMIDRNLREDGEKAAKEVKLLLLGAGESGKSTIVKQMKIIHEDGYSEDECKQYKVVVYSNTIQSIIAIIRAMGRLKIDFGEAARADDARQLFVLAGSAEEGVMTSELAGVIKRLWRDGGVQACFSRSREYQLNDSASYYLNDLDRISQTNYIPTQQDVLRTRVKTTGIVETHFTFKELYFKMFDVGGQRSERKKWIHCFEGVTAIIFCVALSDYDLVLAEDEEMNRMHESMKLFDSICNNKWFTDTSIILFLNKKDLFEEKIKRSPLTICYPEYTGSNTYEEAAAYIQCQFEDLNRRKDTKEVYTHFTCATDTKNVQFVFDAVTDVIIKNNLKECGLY
# Sa growth inh = S. aureus growth inhibition at 42 and 30 °C, primary screen, LtaS inhibitor project, RN4220, two temperatures; 170,000 tested, 0.53% active; OD600, 20 h, 42 °C; active compounds read low; AID 720641, 2013; relative growth, % (no concentration beside the values);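 active = growth at 42 °C up to 50% and 20 or more points under that at 30 °C, or under 10% at both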;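 note: 300 nL library stock went into each well; scaled to the means of positive and negative controls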
# HCMV NEC inh = inhibitors of HCMV UL50-UL53 interaction, biochemical, HTRF. HCMV UL50-UL53 nuclear egress complex (human cytomegalovirus). AID 1918969, 2023. normalized percent inhibition. 190,000 tested, 0.15% active. inhibition, % (concentration not given with the values);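 active = both replicates at 50% or more, plus weaker picks with an unusually low signal ratio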;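 note: stock transfer was 100 nL into about 20 µL; 0% = negative control wells and 100% = wells with untagged competitor protein; inactives centre near -12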
# Sa growth inh second temp = further read-out of Sa growth inh, marked with its call; relative growth, %; measured here: growth at 30 °C;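 optical density after 20 h as mean of two plates; 100% = untreated growth and lower means inhibition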
# An asterisk follows results filed as active; nt = no result given; & = joins results of further samples.
SMILES,GIV Gai3 FP,Sa growth inh,Sa growth inh second temp,HCMV NEC inh
C=CC[C@H]1Cc2ccccc2[C@H](CC=C)N1,98,109,78,nt
CCOC(=O)c1ccc(NC(=O)Cn2nc(SC)c(S(=O)(=O)c3ccc(Cl)cc3)c2N)cc1,105,100,95,9
Cc1ccc(-n2ncc(C(=O)NCCN3CCC(Cc4ccccc4)CC3)c2C2CCN(C(=O)OC(C)(C)C)CC2)cc1,113,105,108,nt
CCOc1ccccc1NC(=O)c1ccc2c(c1)CCCN2S(C)(=O)=O,103,99,90,-18
C/C(=N\O)c1cc(-c2ccccc2)c(C(F)(F)F)s1,109,87,72,0
O=C(O)COc1cccc(-c2nc3ccccc3s2)c1,101,125,71,-39
O=c1cc(-c2ccccc2)oc2cc(Cl)cc(Cl)c12,108,95,84,-47
CC(=O)ON1C(=O)c2cccc3c(Br)ccc(c23)C1=O,nt,71,23,-129
O=C(CCN1C(=O)c2ccccc2C1=O)OCc1ccc(F)cc1,102,105,95,-15
Cc1ccccc1NC(=O)c1ccc(CN2CC(=O)N3CCCCC3C2=O)cc1 (stereo unspecified),103,94,92,-5
Cc1c(N=C2SC(CC(=O)O)C(=O)N2/N=C/c2ccccc2O)c(=O)n(-c2ccccc2)n1C (stereo unspecified),101,87,87,nt
COC[C@@H]1N=C(C)OC1c1ccccc1 (stereo partly specified),nt,75,99,18
Cc1cnc2c(c1)N1CCC2CC1,99,63,106,16
Cc1ccc(NC(=O)c2c(NC(=O)C(F)(F)F)sc3c2CCCCC3)cc1,110,71,57,-75
O=C(O)CSc1nc(-c2ccccc2)nc2c1CCCC2,103,98,93,-8
Cn1c2ccc(Br)cc2c2nnc(SCc3ccc4nonc4c3)nc21,nt,82,84,-14
Cc1ccc(S(=O)(=O)c2nc(-c3ccco3)oc2SC(C)c2ccccc2)cc1 (stereo unspecified),99,96,70,-4
Cc1ccc(CN(Cc2ccco2)C(=O)c2oc3c(C)c(C)ccc3c2C)cc1,104,81,63,-3
CCOC(=O)C1CCN(C(=O)c2nn(C)c3c2CCc2sccc2-3)CC1,100,nt,nt,8
Nc1nc(-c2ccc3c(c2)CC(=O)N3)cs1,nt,101,98,-55

# In a second layout: entries from further up
# Each structure is followed by: GIV Gai3 FP | Sa growth inh | Sa growth inh second temp | HCMV NEC inh
COC[C@@H]1N=C(C)OC1c1ccccc1 (stereo partly specified)
  nt | 75 | 99 | 18
Cc1cnc2c(c1)N1CCC2CC1
  99 | 63 | 106 | 16
Cc1ccc(NC(=O)c2c(NC(=O)C(F)(F)F)sc3c2CCCCC3)cc1
  110 | 71 | 57 | -75
O=C(O)CSc1nc(-c2ccccc2)nc2c1CCCC2
  103 | 98 | 93 | -8
Cn1c2ccc(Br)cc2c2nnc(SCc3ccc4nonc4c3)nc21
  nt | 82 | 84 | -14
Cc1ccc(S(=O)(=O)c2nc(-c3ccco3)oc2SC(C)c2ccccc2)cc1 (stereo unspecified)
  99 | 96 | 70 | -4

# The list continues.
SMILES,GIV Gai3 FP,Sa growth inh,Sa growth inh second temp,HCMV NEC inh
O=C(c1ccc(CN2C(=O)CCn3nc(-c4ccc(Cl)cc4)cc32)cc1)N1CCCCC1,99,nt,nt,-1
Nc1ncnc2c1ncn2[C@@H]1O[C@H](CO)[C@@H](O)[C@H]1O,nt,84,82,-17
CCn1c(SC(C)c2nc3ccccc3s2)nnc1-c1cccc(S(=O)(=O)N2CCCC2)c1 (stereo unspecified),nt,98,85,-5
COc1ccc(NC(=O)c2cc(S(=O)(=O)N3CCCC(C)C3)cn2C)c(OC)c1 (stereo unspecified),99&108,87,89,-4
Cc1c(Cl)c([N+](=O)[O-])nn1CC(=O)Nc1cc(Oc2cccnc2)cc([N+](=O)[O-])c1,98,nt,nt,-21
CCOC(=O)Nc1ccc2c(COC(=O)c3nccnc3N)cc(=O)oc2c1,nt,94,88,-26
CCCN1C(=O)C(O)(CC(=O)c2ccc(OC)c(OC)c2)c2ccccc21 (stereo unspecified),103,106,97,6
COc1ccc(CNC(=O)Cc2c(C(=O)O)[nH]c3ccc(Cl)cc23)c(OC)c1,98,88,93,-16
C=CCN1C(=O)C2C3C=CC(C3)C2C1=O (stereo unspecified),113,123,87,nt
COc1ccc(OC)c(C2C3=C(CC(c4ccc(O)cc4)CC3=O)Nc3onc(C)c32)c1 (stereo unspecified),108,nt,nt,-14
COc1ccc(C(=O)COC(=O)c2ccccc2SCC(=O)N(C)C)cc1F,nt,99,67,-9
O=C(CSc1ncc2c(n1)-c1ccccc1N(Cc1ccc(F)cc1)S2(=O)=O)NCc1ccccc1,102,93,84,nt
COc1ccc(CNc2cc(-c3ccc(OC)cc3)nc3nncn23)cc1,102,91,77,-20
N#Cc1c(N)c(C#N)c(=S)n(CC2CCCO2)c1N (stereo unspecified),102,83,86,nt
Cc1ccc2c(c1)N(CC(=O)O)C(=O)CO2,100&104,99,91,-18
Cc1ccc(CNc2ccc3[nH]c(=O)[nH]c3c2)cc1,99,nt,nt,-20
CCOc1ccc(S(=O)(=O)c2cn(Cc3ccccc3)c3ccc(OCC)cc3c2=O)cc1,109,107,81,-4
C=CCNCc1cccs1,nt,112,95,1
Cc1ccc(CSc2ncnc3sc(C)c(C)c23)cc1,nt,85,98,-4
O=C(O)c1ccc(OC2CSC2)cc1,98,112,97,nt

# 2 of these compounds, reformatted:
compound: N#Cc1c(N)c(C#N)c(=S)n(CC2CCCO2)c1N (stereo unspecified)
  GIV Gai3 FP: 102 | Sa growth inh: 83 | Sa growth inh second temp: 86 | HCMV NEC inh: nt
compound: Cc1ccc2c(c1)N(CC(=O)O)C(=O)CO2
  GIV Gai3 FP: 100&104 | Sa growth inh: 99 | Sa growth inh second temp: 91 | HCMV NEC inh: -18

# Next section:
SMILES,GIV Gai3 FP,Sa growth inh,Sa growth inh second temp,HCMV NEC inh
CCc1c(C)c2cc3c(C)coc3cc2oc1=O,100,93,92,nt
CC(=O)NC1C(=O)N=C(SCC(=O)Nc2c(C)cccc2C)NC1=O (stereo unspecified),106,93,92,-14
CCn1c(=O)c(=O)[nH]c2cc(C(=O)NC3CC3)ccc21,nt,94,91,-14
COc1ccc(C2c3c(n(C)c4ccccc34)C(=O)N2CC(=O)NCc2cccc(Cl)c2)cc1 (stereo unspecified),107,nt,nt,-1
Cc1ccc(C)c(OC(=O)CCN2C(=O)c3ccccc3C2=O)c1,106,115,75,-9
CCCn1nc(NS(C)(=O)=O)c2cc3ccccc3nc21,100,87,77,-63
O=C(c1ccc(-c2nc3ccccc3s2)o1)N1CCCCCC1,nt,78,92,-52
CCOC(=O)COn1c(C)c(C(=O)OCC)c2c3nonc3ccc21,103,112,80,-52
COc1ccc(NC(=O)CN2CCC(n3c(C)nc4cc(F)ccc43)CC2)c(OC)c1,98,85,105,12
O=C(CC1NCCNC1=O)OCc1ccccc1 (stereo unspecified),102,nt,nt,-1
Cc1[nH]n(-c2ccccc2)c(=O)c1C(=O)Nc1ccc(Cl)cc1,nt,30,35,3
Cc1cccc(CC(=O)NCc2nc3cccnc3n2Cc2ccc(F)cc2)c1,102,108,80,nt
Nc1ccc(Oc2ccc3c(c2)OCO3)cc1,106,116,92,-7
Cc1ccccc1NC(=O)CN1CCC(n2nnc3ccccc32)CC1,101,94,89,5
CCN(CC)c1sc(S(=O)(=O)c2ccccc2)nc1S(=O)(=O)c1ccc(C)cc1,102,93,97,-14
Cc1ccc(-c2nc3ccc(Cl)cn3c2Nc2ccc3c(c2)OCO3)o1,101,86,84,-30
Nc1nc(-c2nccs2)cc(C(F)(F)F)n1,94,99,83,-12
C=CCn1c(=O)c(=O)n(Cc2ccc(C(=O)NCCN(CC)CC)cc2)c2ccccc21,99,nt,nt,-15
CC(C)(C)c1ccc(S(=O)(=O)n2ccnc2)cc1,103,nt,nt,-10
O=S(=O)(c1ccc(-c2nnc(C3CCC3)o2)s1)N1CCCCC1,104,nt,nt,-40

# Single records, as listed above. Values in the order: GIV Gai3 FP, Sa growth inh, Sa growth inh second temp, HCMV NEC inh
# `O=C(CC1NCCNC1=O)OCc1ccccc1` (stereo unspecified) is listed with 102, nt, nt, -1
# `CC(C)(C)c1ccc(S(=O)(=O)n2ccnc2)cc1` is listed with 103, nt, nt, -10

# Continuation.
SMILES,GIV Gai3 FP,Sa growth inh,Sa growth inh second temp,HCMV NEC inh
Cc1c(C(=O)NCc2ccccc2)sc2nc[nH]c(=O)c12,105,111,91,nt
O=C(C1CCCN(c2ncnc3c2nc2n3CCCCC2)C1)N1CCCCCC1 (stereo unspecified),105,102,94,2
Cc1cc(OCc2nc(C)c(C(=O)Nc3ccc4c(c3)OCO4)s2)ccc1Cl,108,nt,nt,5
O=C(CN(CCc1ccccc1)S(=O)(=O)c1ccccc1)NCc1ccc(Cl)cc1,106,101,89,-14
Cc1ccc(N(C(=O)c2ccccc2C)S(=O)(=O)c2ccc(Cl)cc2)cc1,108,135,91,nt
Cc1ccc(C(=O)N2CCN(c3ccccc3)CC2)cc1,109,92,94,10
CC(=O)c1ccc(S(=O)(=O)Nc2ccc(-c3cn4c(C)csc4n3)cc2)cc1,100,79,86,nt
O=C1C2=C(NC3=C(C(=O)c4ccccc43)C23C(=O)Nc2ccccc23)c2ccccc21,107,nt,nt,-10
CCOC(=O)c1cnc2c(C)cccc2c1Nc1ccc(OC(C)C)cc1,101,98,98,22
CCOc1ccc(N(Cc2nc3nc(C)cc(=O)n3[nH]2)C(=O)C2CCCCC2)cc1,104,nt,nt,-5
COC(=O)c1cc2sc(Cl)cc2n1Cc1nc(-c2ccccc2F)oc1C,104,96,101,-6
Cn1nc(C(=O)NCc2ccccc2)cc1C(=O)NCc1ccccc1,100,100,99,-18
Cc1nc(NC(=O)COC(=O)c2cccn2C)c(Cl)cc1Cl,nt,102,87,-23
COc1ccc(-c2nnn(CN(C)Cc3sccc3C)n2)cc1OC,nt,83,91,-30
Cc1ccc(C)c(NC(=O)CSc2ccc3nc(-c4ccccc4)cn3n2)c1,104,94,88,nt
NS(=O)(=O)c1ccc(NNC(=O)C2CCN(C(=O)OCc3ccccc3)CC2)cc1,109,88,86,-32
COc1ccc(Cn2ccc3nc(C)c(C(=O)Nc4ccc(OC(F)(F)F)cc4)cc3c2=O)cc1,98,79,77,nt
CC(Oc1cccc(Cl)c1)C(=O)N1CCCCC1 (stereo unspecified),100,102,87,-12
COc1ccc(-c2nc(CSCC(=O)O)c(C)o2)cc1,103,97,111,6
O=C(C1CCN(c2ncc(C(F)(F)F)cc2Cl)CC1)N1CCCc2ccccc21,nt,75,97,0
CN(C)C(CNC(=O)c1ccc2c(c1)OCO2)c1ccco1 (stereo unspecified),nt,106,97,6
CCCC(=O)Nc1onc2c1CC(C)CC2 (stereo unspecified),97,nt,nt,-22
Cc1nc(C)c(-c2ccn(C(=O)c3ccc(Cl)cc3)n2)o1,102,81,70,-4
CCCC(=O)NCc1nc2ccccc2n1C(C)c1ccccc1 (stereo unspecified),102,100,85,nt
CCC(=O)N1CCc2cc(Br)cc(S(=O)(=O)N3CCC(C(=O)Nc4ccc(OC)cc4)CC3)c21,102,119,99,nt
CCc1ccccc1NC(=O)N1CCC(NC(=O)C(C)(C)C)CC1,97,78,94,-16
CCn1ncc(NC(=S)NCc2ccco2)c1C(N)=O,92,98,85,-7
Cc1ccc(C(=O)n2c(=S)sc3ccccc32)cc1,nt,90,81,-10
CSc1nnc2c(n1)OC(c1c(Cl)cccc1Cl)Nc1ccccc1-2 (stereo unspecified),102,nt,nt,-32
Cc1ccc(-n2nnc(C(=O)N3CCCCC3)c2N)cc1,104,104,80,-2
FC(F)(F)c1cc(-c2ccccc2)nc(N2CCN(c3ccccc3)CC2)n1,101,106,92,nt
CC(C)c1ccc(NC(=O)c2cnn3c(C(F)F)cc(-c4ccccc4)nc23)cc1,99,94,98,13
Cc1ccc(S(=O)(=O)N2CCC(On3nnc4ccccc43)CC2)cc1,101,95,101,-19
O=C(NCCc1c[nH]c2ccccc12)c1cccc(NC(=O)c2nnc(COc3ccccc3)s2)c1,107,nt,nt,-13
COc1ccc(Cl)cc1C(=O)NCCc1sc(-c2ccc(F)cc2)nc1C,103,nt,nt,2
COc1ccc(NC(=O)CN(C)C2CCS(=O)(=O)C2)cc1 (stereo unspecified),nt,96,86,-31
O=C1CCC(C(=O)NC(c2ccccc2)c2ccccc2)=NN1,nt,91,99,4
CCN(CC)Cn1cnc2c(SC)ncnc21,102,98,71,nt
CC(=O)Nc1sc2c(c1CN1CCN(S(=O)(=O)c3ccccc3)CC1)CCCC2,nt,92,86,-21
Cc1csc(Nc2ccccc2)n1,nt,91,79,-22
Cn1cc(-c2ccccc2)c(C(F)(F)F)n1,108,108,58,-1
N#C/C(=C(/O)CSc1nc2ccccc2o1)c1nc2ccccc2[nH]1,nt,105,99,-30
O=S(=O)(n1nccc1-c1sccc1Cl)C(F)(F)F,100,nt,nt,-2
CCOc1ccc(NS(=O)(=O)c2ccc3oc(=O)c4ncn(C)c4c3c2)cc1,100,nt,nt,-14
Cc1ccsc1C(=O)OCC(=O)NCc1ccccc1,nt,124,88,-23
COc1ccc(C(=O)Oc2cc(-c3ccc4c(c3)OCO4)cc(=O)c3c(C)oc(C)c23)cc1,106,103,93,7
CC1CCCCN1C(=O)Cn1c(=O)cnc2ccccc21 (stereo unspecified),nt,92,99,-80
O=S(=O)(NC1CCCCCC1)c1ccc(F)c(F)c1,nt,108,96,-14
O=C(C1CCC(=O)N1S(=O)(=O)c1ccccc1)N1CCN(c2ccccn2)CC1 (stereo unspecified),102,nt,nt,-16

# From PubChem
